Mtb H37Rv: Mycobacterium tuberculosis H37Rv growth inhibition, cell based, confirmatory dose response (AID 1949). M. tuberculosis H37Rv growth inhibition. most inactive calls were filed without a number and no value below 0 was filed. inhibition, % at 10 µg/mL; hits with a dose series show IC50 in µg/mL. 100,000 tested, 1.6% active;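 active = confirmed in a dose series; inconclusive = about 50% or more but not retested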;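 also: bacteria grown 7 days with compound before Alamar blue readout; 0% = untreated bacteria and 100% = reference antibiotic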
Active calls of the source: *; i = inactive; u = inconclusive. Only part of the results is shown, so the mix of outcomes need not match the whole.

SMILES	Mtb H37Rv
COc1c(C)cc(Br)cc1C(=O)NC(=S)Nc1ccc([N+](=O)[O-])cc1	i
Cc1ccc(C(=O)N2CCc3ccccc3C2)cc1Cl	i
COc1ccc(OC)c(NC(=O)CS(=O)(=O)c2ccccc2)c1	29.9%
CCOc1ccc(NC(=O)CN(c2ccc(CC)cc2)S(=O)(=O)c2ccccc2)cc1	i
CC(C)CNC(=O)CN(c1cc(Cl)ccc1Cl)S(C)(=O)=O	i
COc1cc(OC)cc(C(=O)N2CCC(C(=O)Nc3ccc(C)cc3)CC2)c1	i
COC(=O)c1ccc(OC(=O)CSc2ccc(S(C)(=O)=O)cc2[N+](=O)[O-])cc1	i
CC(NC(=O)c1ccccc1OCC(=O)c1ccc2c(c1)CCCC2)c1ccccc1 (stereo unspecified)	i
CCn1c(CNC(=O)c2ccccc2Cl)n[nH]c1=S	i
CCc1ccccc1NC(=O)c1ccccc1NC(=O)c1ccc(Cl)cc1Cl	i
CCCN(CC1CC1)C(=S)Nc1cccc2ccccc12	0.8%
COc1ccc(Cl)cc1C(=O)N1CC(C)N(C(=O)c2cc(Cl)ccc2OC)CC1C (stereo unspecified)	i
Cc1ccc(CCNC(=O)Nc2ccc(F)cc2)cc1	6.9%
CC(C)OC(=O)CSc1nnc(-c2ccccc2F)n1-c1ccccc1	i
N#C/C(=C\c1ccc(-c2cc(Cl)ccc2Cl)o1)C(=O)N1CCCCC1	5.1%
CC(C)(C)NC(=O)CSc1nc(O)cc(=O)[nH]1	i
CCOC(=O)c1c(NC(=O)C(Sc2ccccc2)c2ccccc2)sc(C(=O)N(C)C)c1C (stereo unspecified)	i
COc1ccc(C2CC(=O)C3=C(C2)Nc2ccccc2NC3c2ccc(Cl)s2)cc1OC (stereo unspecified)	39.4%
CC1CCc2c(sc(NC(=O)c3cccc(C(=O)O)c3)c2C(N)=O)C1 (stereo unspecified)	1.5%
COc1ccc(NC(=O)c2ccc(-c3nnc(-c4ccccc4)o3)cc2)cc1	i
COc1ccc(S(=O)(=O)NCCN2CCOCC2)cc1OC	i
Cc1ccc(C)c(NC(=O)C(C)N2C(=O)c3ccccc3C2=O)c1 (stereo unspecified)	i
Cc1ccc(C(=O)Nc2ccccc2OC(F)F)cc1[N+](=O)[O-]	1.2%
O=c1c2c3c(sc2ncn1Cc1ccc(F)cc1)CCCC3	0.4%
COc1ccc(-n2c(SCC(=O)Nc3ccc(Cl)cc3Cl)nnc2-c2ccncc2)cc1	i

(listing goes on)
SMILES	Mtb H37Rv
O=Cc1cccc(OCCCCN2CCOCC2)c1	i
COc1ccccc1C(=O)CC1(O)C(=O)N(Cc2ccccc2Cl)c2ccccc21 (stereo unspecified)	i
Cc1ccc(F)cc1NC(=O)CSc1ccc(Br)cc1	36.0%
COC(=O)c1ccccc1NC(=S)NC(=O)c1cc2ccccc2cc1OC	i
Cc1cc(C)c(S(=O)(=O)Nc2ccc[nH]c2=O)c(C)c1	0.6%
COc1cccc(/C=C/C2=NN(c3ccc(Cl)c(Cl)c3)C(c3cccc(OC)c3OC)C2)c1OC (stereo unspecified)	i
C=CCNc1oc(-c2ccccc2Cl)nc1C#N	i
Cc1ccc(C(=O)NC23CC4CC(CC(C4)C2)C3)cc1C	i
COc1ccc(OC(=O)COc2cc(C)c(Cl)c(C)c2)cc1	i
CCCCC(CC)C(=O)NCCCN1CCOCC1 (stereo unspecified)	i
NC(=O)c1ccccc1NC(=O)Nc1ccc(F)c(Cl)c1	9.1%
NS(=O)(=O)c1ccc(CNC(=O)C(Sc2ccccc2)c2ccccc2)cc1 (stereo unspecified)	i
CCC(C)c1ccc(NC(=O)CN(C)S(=O)(=O)c2cc(Cl)ccc2Cl)cc1 (stereo unspecified)	i
CCc1ccccc1OCC(=O)Nc1ccc([N+](=O)[O-])cc1C	i
COc1ccc(COCC(O)CN2CCC(Cc3ccccc3)CC2)cc1OC (stereo unspecified)	i
CCOC(=O)C1=C(C)NC2=C(C(=O)CC(c3cccc(OC)c3)C2)C1c1ccccn1 (stereo unspecified)	i
Cc1ccc(C(C)C)cc1S(=O)(=O)NCc1ccco1	i
CS(=O)(=O)Nc1ccc(S(=O)(=O)Nc2cccc(Cl)c2Cl)cc1	i
COc1ccc(S(=O)(=O)NC2CC2)cc1Br	i
CCOC(=O)c1c(NC(=O)C(c2ccccc2)c2ccccc2)sc2c1C1CCN2CC1	26.4%
Cc1ccc(NC(=O)c2ccc(C)c(Br)c2)cc1Cl	i
CC(Sc1nccn1C)C(=O)NC(c1ccccc1)c1ccccc1 (stereo unspecified)	i
CN(C)c1ccc2sc(SCC(=O)Nc3ccccc3)nc2c1	i
Cc1ccccc1C(=O)N1CCN(c2ccc(NC(=O)c3ccccc3F)cc2Cl)CC1	41.6%
CC(Oc1cccc(Cl)c1)C(=O)Nc1ncccn1 (stereo unspecified)	i

(list continues)
SMILES	Mtb H37Rv
Cc1ccc(SCCC(=O)Nc2ccc(S(=O)(=O)N3CCCCC3)cc2)cc1	i
COC(=O)C1=C(C)N=C2SCCC(=O)N2C1c1ccc(OC)c(OC)c1 (stereo unspecified)	i
O=C(CSc1nc2ccccc2c(=O)[nH]1)Nc1ccccc1Cl	i
CCOC(=O)c1c(NC(=O)c2ccc(C#N)cc2F)sc2c1CCCC2	i
CCOc1ccc2nc(NC(=O)c3cccs3)sc2c1	i
COc1ccc(Nc2nc3ccccc3n3cnnc23)cc1	i
CCCC(=O)Nc1ccc2nc(SCC(=O)Nc3nccs3)sc2c1	i
Cc1nc(C(F)(F)F)nc(Nc2ccc(Br)cc2)c1C#N	1.3%
COc1cc(NC(=S)NCc2ccc(S(N)(=O)=O)cc2)c(OC)cc1Cl	i
CCC(C)c1ccccc1OCCCN1CCOCC1 (stereo unspecified)	6.9%
CCS(=O)(=O)n1nc(-c2ccc(Cl)cc2)nc1N	i
O=C1c2ccccc2C(=O)C1(Nc1ccccc1)c1ccc(Cl)cc1	2.0%
CCS(=O)(=O)Nc1ccccc1Oc1ccccc1	i
Cc1cccc(OCC(=O)Oc2ccc(Cl)cc2)c1	i
O=C1CC2c3ccccc3C1C1C(=O)N(Cc3ccccc3)C(=O)C21 (stereo unspecified)	i
Cc1ccc(C(=O)Nc2c[nH]c(=O)[nH]c2=O)cc1	i
Cc1cc(Br)c(NC(=O)c2cccc([N+](=O)[O-])c2)cc1C	i
COc1ccc(N(CC(=O)N(C)C)S(=O)(=O)c2ccc(C)cc2)cc1OC	i
COc1cc(NC(=O)c2ccc(-n3nc(C)cc3C)cc2)cc(OC)c1	i
CCOC(=O)c1c(NC(=O)c2ccccc2OC)sc(C(=O)Nc2ccc(C)cc2C)c1C	i
CCn1c(COc2ccc3c(c2)OCO3)nnc1SCC(=O)c1ccccc1	i
COCCNC(=S)c1ccc(Br)cc1	i
COc1cccc(S(=O)(=O)Nc2ccc(F)c(Cl)c2)c1	0.1%
CCOC(=O)c1ccc(NC(=S)NCCC2=CCCCC2)cc1	46.9%
O=C(O)C1CCCCC1C(=O)Nc1cccc(C(=O)N2CCCCC2)c1 (stereo unspecified)	i

Going on with the list:
SMILES	Mtb H37Rv
COc1ccc(C(=O)N2CC3(C)C4CCC3(C)C2(C#N)C4)cc1OC (stereo unspecified)	i
COc1cc(SC)ccc1C(=O)NCCOc1ccccc1Cl	i
COc1cc(C(O)c2nc3ccccc3n2C)ccc1OCc1ccccc1 (stereo unspecified)	i
CN1CCN(CC(=O)Nc2ccccc2[N+](=O)[O-])CC1	i
Cc1ccc(NC(=O)c2ccccc2Cl)c(Br)c1	0.4%
CC(C)(C)OC(=O)NN1C(=O)c2ccccc2C1=O	i
COc1cc2c(cc1OC)C(c1ccccc1Br)CC(=O)N2 (stereo unspecified)	i
COc1c(Cl)cc(C(=O)NC(=S)Nc2ccc(-c3nc4ccccc4s3)cc2)cc1Cl	i
CCSc1nnc(-c2ccccc2)n1-c1ccc(F)cc1	i
Cc1cc(C)n(Cc2ccc([N+](=O)[O-])cc2)n1	2.5%
CCCCc1cc(=O)oc2c(O)c(O)ccc12	i
CCc1ccc(C(=O)Nc2ccc(OC)cc2OC)cc1	38.8%
CCNS(=O)(=O)c1ccc(SC)cc1	3.2%
COc1ccc(NC(=O)C2CCN(C(=O)c3ccccc3Cl)CC2)cc1OC	3.1%
COc1cc(C(=O)NC(C)Cc2ccccc2)cc(OC)c1OC (stereo unspecified)	i
CCC(Sc1ccccn1)C(=O)Nc1cccc2ccccc12 (stereo unspecified)	u
O=C(NCCc1ccc(F)cc1)c1sc2ccccc2c1Cl	3.0%
CCCCC(=O)NCc1ccc(Cl)cc1	i
O=C(c1cc(Br)ccc1Cl)N1CCN(c2cccc(C(F)(F)F)c2)CC1	1.3%
O=C(Nc1ccc(Oc2ccc(Cl)cc2)cc1)C1CC1	9.9%
Cc1nnc(SCC(=O)N2CCc3ccccc32)n1-c1ccccc1	i
O=c1c2cc(I)ccc2nc(/C=C/c2ccccc2)n1Cc1ccccc1	i
COc1ccccc1-n1c(-c2ccc(F)cc2)n[nH]c1=S	i
CC(C)(C)NCC1(O)C2CN3CCN(C2)CC1(c1ccccc1)C3 (stereo unspecified)	i
CC1CCc2c(sc3nc(SCC(=O)NCc4ccccc4)n(C)c(=O)c23)C1 (stereo unspecified)	0.0%

(list continues)
SMILES	Mtb H37Rv
CC(C)CCNC(=O)CSCc1c(Cl)cccc1Cl	i
COc1ccc2c(c1OC)C(=O)N1c3cn(C)nc3C(=O)NC21 (stereo unspecified)	i
CCC(C)c1ccc(NC(=O)c2ccccc2Br)cc1 (stereo unspecified)	3.2%
Cc1ccc(C(=O)NC2CCCCC2)cc1S(=O)(=O)N1CCCC1	i
COc1ccc2cc(Br)ccc2c1CC(=O)N1CCc2ccccc21	4.2%
Cc1c(NC(=S)Nc2ccc(Br)cc2Cl)c(=O)n(-c2ccccc2)n1C	i
CC(NC(=O)c1ccccc1)c1nnc(SCC(=O)Nc2cc(C(F)(F)F)ccc2Cl)n1C (stereo unspecified)	i
C=CCOc1cccc(CNCCc2ccccc2)c1	5.2%
Cc1ccccc1OCc1nnc(SCC(=O)c2ccc(Br)cc2)n1C	i
COc1ccc(CNc2ccc(Br)cn2)cc1	0.8%
Nn1cnn2c(SCCSC3CCCCC3)nnc12	2.2%
O=[N+]([O-])c1ccc(N2CCN(S(=O)(=O)c3ccc(Cl)c(Cl)c3)CC2)c(C(F)(F)F)c1	2.6%
CC1CCCc2sc3nc[nH]c(=O)c3c21 (stereo unspecified)	i
O=c1c2ccccc2nc2c3ccccc3c(Sc3ccccc3)nn12	i
Cc1cccc(C(=O)NCc2ccco2)c1[N+](=O)[O-]	i
O=C(NC1CCCCC1)c1ccccc1NC(=S)Nc1ccccc1	i
Cc1cccc(OCCn2c(=S)[nH]c3cc(C(F)(F)F)ccc32)c1	4.9%
O=C1c2ccccc2C(=O)C1C1(C2C(=O)c3ccccc3C2=O)C(=O)Nc2ccccc21	5.5%
Cc1ccc2c(Cl)c(C(=O)Nc3ccc([N+](=O)[O-])cn3)sc2c1	i
Cc1noc(NS(=O)(=O)c2ccc(NC(=O)c3ccc(C(C)C)cc3)cc2)c1C	9.9%
CC(CNC(=O)c1ccc(C(C)(C)C)cc1)c1ccccc1 (stereo unspecified)	4.3%
COc1ccc(Br)cc1S(=O)(=O)N1CCN(Cc2ccc3c(c2)OCO3)CC1	i
COc1ccc(-c2noc(COc3ccc(Br)cc3C)n2)cc1OC	i
Cc1ccc(-n2nc3ccc(NC(=O)c4cc5ccccc5o4)cc3n2)cc1C	i
CCOC(=O)c1c(NC(=O)COc2ccc(Cl)cc2)sc(C(N)=O)c1C	i

Later entries
SMILES	Mtb H37Rv
Cc1ccc(-c2ccc(CCC(=O)O)n2-c2ccc(N(C)C)cc2)cc1	i
COc1cccc(NC(=O)Nc2ccccc2C2CC2)c1	i
COc1ccc(Cl)cc1NC(=S)Nc1cccc(NC(C)=O)c1	i
CCCCNCCCCOc1ccc(Cl)cc1Br	28.7%
CCN(CC)C(=O)CN(c1ccc(Br)cc1)S(C)(=O)=O	i
CC(NC(=O)C1(c2ccccc2)CCOCC1)c1ccccc1 (stereo unspecified)	1.7%
COc1ccc(C(=O)Nc2cccc(F)c2)cc1Br	i
CCC(C)NC(=O)c1ccccc1NC(=O)CN(c1ccc([N+](=O)[O-])cc1)S(=O)(=O)c1ccccc1 (stereo unspecified)	i
O=C(CC1C(=O)NCCN1C(=S)Nc1ccccc1)Nc1ccc2c(c1)OCCO2 (stereo unspecified)	i
CCCCOc1cccc(OCCCC)c1C(=O)NCCc1ccc(OC)c(OC)c1	6.5%
CCCCOc1ccc(NC(=O)c2ccc(I)o2)cc1	u

Compounds above that have fluorine:
SMILES	Mtb H37Rv
Cc1ccc(CCNC(=O)Nc2ccc(F)cc2)cc1	6.9%
CC(C)OC(=O)CSc1nnc(-c2ccccc2F)n1-c1ccccc1	i
Cc1ccc(C(=O)Nc2ccccc2OC(F)F)cc1[N+](=O)[O-]	1.2%
O=c1c2c3c(sc2ncn1Cc1ccc(F)cc1)CCCC3	0.4%
Cc1ccc(F)cc1NC(=O)CSc1ccc(Br)cc1	36.0%
NC(=O)c1ccccc1NC(=O)Nc1ccc(F)c(Cl)c1	9.1%
Cc1ccccc1C(=O)N1CCN(c2ccc(NC(=O)c3ccccc3F)cc2Cl)CC1	41.6%
CCOC(=O)c1c(NC(=O)c2ccc(C#N)cc2F)sc2c1CCCC2	i
Cc1nc(C(F)(F)F)nc(Nc2ccc(Br)cc2)c1C#N	1.3%
COc1cccc(S(=O)(=O)Nc2ccc(F)c(Cl)c2)c1	0.1%
CCSc1nnc(-c2ccccc2)n1-c1ccc(F)cc1	i
O=C(NCCc1ccc(F)cc1)c1sc2ccccc2c1Cl	3.0%
O=C(c1cc(Br)ccc1Cl)N1CCN(c2cccc(C(F)(F)F)c2)CC1	1.3%
COc1ccccc1-n1c(-c2ccc(F)cc2)n[nH]c1=S	i
CC(NC(=O)c1ccccc1)c1nnc(SCC(=O)Nc2cc(C(F)(F)F)ccc2Cl)n1C (stereo unspecified)	i
O=[N+]([O-])c1ccc(N2CCN(S(=O)(=O)c3ccc(Cl)c(Cl)c3)CC2)c(C(F)(F)F)c1	2.6%
Cc1cccc(OCCn2c(=S)[nH]c3cc(C(F)(F)F)ccc32)c1	4.9%
COc1ccc(C(=O)Nc2cccc(F)c2)cc1Br	i
